# gsp ag: activates gsp, the McCune-Albright syndrome mutation | Potency, µM (series often up to 76.9 µM), without a hit: at the top dose activation (cAMP increase), actives largely listed as activators | gsp mutant cells, cAMP HTRF, 30 min; control for the full effect not named in the record | 340,000 compounds, 0.13% hits; active = well fitted activation curve with a large enough effect; inconclusive = small, poorly fitted or top-dose-only effect, or another doubt; inactive = no such curve, though single readings can be large or run the other way; cell line not stated here;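 note: phosphodiesterase inhibitor Ro 20-1724 added with compounds to block cAMP breakdown; potency is the fitted concentration of half-maximal effect; nearly all actives have a fitted effect of over 60% in size; about a fifth of the inactives were tested at one dose only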
#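 Cells in DMEM/10% FBS with G418 were pretreated with compounds in DMSO plus […] (300 uM stock) for 30 min at 37C. cAMP was measured by HTRF (cAMP-d2 plus anti-cAMP antibody-K) after 30 min at room temperature.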
# D2 potentiator: human D2 receptor positive allosteric modulation; P14416; DiscoveRx D2 beta-arrestin cells, luminescence, 90 min; 100% = 57 uM dopamine signal; potentiation, % (test concentration not listed); 360,000 compounds, 0.23% hits; AID 624464; active = potentiation of 50% or more; inconclusive = 30% to 50%; inactive = 30% or less;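 note: compound concentration not given in the record; tested on top of an EC20 dose of dopamine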
# Target sequence (P14416 whole entry, looked up): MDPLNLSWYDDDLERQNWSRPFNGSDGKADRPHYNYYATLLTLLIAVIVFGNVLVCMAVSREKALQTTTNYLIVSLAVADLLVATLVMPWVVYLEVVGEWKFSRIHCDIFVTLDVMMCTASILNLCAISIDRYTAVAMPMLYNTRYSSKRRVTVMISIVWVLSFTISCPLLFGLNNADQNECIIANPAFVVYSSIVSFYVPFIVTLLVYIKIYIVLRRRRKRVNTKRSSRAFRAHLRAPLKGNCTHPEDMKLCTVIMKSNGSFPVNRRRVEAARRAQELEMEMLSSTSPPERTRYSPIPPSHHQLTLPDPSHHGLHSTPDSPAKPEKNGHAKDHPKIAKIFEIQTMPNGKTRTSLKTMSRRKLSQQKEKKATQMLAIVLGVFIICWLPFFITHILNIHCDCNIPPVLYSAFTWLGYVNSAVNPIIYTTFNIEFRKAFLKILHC
#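 PathHunter beta-arrestin assay in DiscoveRx D2 cells. Compounds were added with an EC20 of dopamine (50 nM final) for 90 min at 37 deg C. Luminescence was read 1 h after detection reagent, with 57 uM dopamine as the EC100 control.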
# Sfp inh: Sfp phosphopantetheinyl transferase inhibition; Q9F4F7; Biochemical Sfp PPTase activity, qHTS; Potency, µM, for inactives: max response, negative = inhibition, hits mostly inhibitors; 310,000 compounds, 3.5% hits; AID 1490; active = well fitted inhibition curve with a large enough effect; inconclusive = small, poorly fitted or top-dose-only effect, or another doubt; inactive = no such curve, though single readings can be large or run the other way;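 note: the enzyme is Sfp with the accession as filed and its product quenches rhodamine fluorescence; potency is the fitted concentration of half-maximal effect; 0% = enzyme reaction without inhibitor and -100% = no enzyme wells; top concentration of the series not given in the record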
#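 Step 1, compound plus 15 nM Sfp-PPTase, 15 min, room temperature. Step 2, add rhodamine-CoA (5 uM) and BHQ-2-YbbR (12.5 uM). Step 3, read 525/598 nm fluorescence at 0 and 30 min.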
# Menin MLL FP FL: menin-MLL binding inhibition, fluorescein peptide. Fluorescence polarization, fluorescein-MLL peptide displacement from menin. 290,000 tested, under 10 active. FP activity change, % at 61.4 µM; inconclusive = falling polarisation curve, or a change in total fluorescence; inactive = total fluorescence flat and polarisation flat or rising; no compound was filed as active; the % refers to the polarisation; negative = inhibition;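 note: % of control where 0% means no effect; inhibitors lower the polarisation; unlabelled MLL peptide was the positive control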
# gsp antagonist: gsp mutant antagonism; 340,000 compounds, 0.4% hits; AID 624288; gsp-mutant cells, cAMP HTRF, 30 min; control for the full effect not named in the record; Potency, µM (doses to about 76.9 µM), without a hit: at the highest dose activity change, negative = inhibition, usual class: inhibitors; active = falling curve of any shape with a large fitted effect; inconclusive = falling curve, mostly with a smaller effect; inactive = flat or rising curve; cell line not stated here;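 note: intracellular cAMP measured with PDE inhibitor Ro 20-1724 present during compound exposure; potency is the fitted concentration of half-maximal effect; % is set by controls: 0 for no effect and ±100 for the full control effect; nearly all actives have a fitted effect of over 65% in size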
#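 Cells in G418 medium, seeded 16-24 h, 37C; buffer exchange to DPBS + 1 mM CaCl2, 0.5 mM MgCl2, 0.05% BSA; cpds in DMSO + […] (300 uM stock), 30 min 37C; HTRF cAMP detection.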
# TRPV1 PAM: potentiators of human vanilloid receptor 1 (TRPV1) | Q8NER1 | TRPV1-expressing cells, Fluo-8 calcium influx, capsaicin EC20 potentiation; host cell line not named in the record; control for the full effect not named in the record | potentiation, % at 8.33 µM | 320,000 compounds, 0.02% hits; active means potentiation above 80%; inconclusive means 30% to 80%; inactive means below 30%; note: 0% is about no effect
#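 Fluo-8 calcium influx in TRPV1-expressing cells, kinetic read (ex 480/em 520 nm). Compound added and read 3 min for agonist activity, followed by capsaicin at EC20 final and 2 min further read for enhancement.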
# ClpP mod: qHTS Assay for Activators of ClpP; ATP-dependent Clp protease proteolytic subunit (Bacillus subtilis (strain 168)), P80244; purified B. subtilis ClpP, FRET peptide cleavage, 20 min; Potency, µM (highest dose often 57.5 µM), for the others: top-dose activity change, negative = active; 340,000 compounds, 1.9% hits; active = well fitted falling curve with a large enough effect; inconclusive = small, poorly fitted or top-dose-only effect; inactive = no such curve, though single readings can be large or run the other way; note: potency is the fitted concentration of half-maximal effect; the source files actives as falling curves though it sought activators and does not explain the sign; nearly all actives have a fitted effect of over 65% in size; many hits overshoot -100%
# Target sequence (P80244 whole entry, looked up): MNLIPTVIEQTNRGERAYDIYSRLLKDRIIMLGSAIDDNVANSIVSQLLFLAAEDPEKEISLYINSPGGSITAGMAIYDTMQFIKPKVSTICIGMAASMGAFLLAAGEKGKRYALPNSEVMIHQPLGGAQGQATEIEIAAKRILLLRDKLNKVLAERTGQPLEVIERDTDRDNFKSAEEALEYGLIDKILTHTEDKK
#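 Purified B. subtilis ClpP, 10 microg/mL final in Tris/HCl pH8 with KCl, BSA, glycerol and Tween-20, cleaved an Abz/nitrotyrosine-quenched decapeptide. Fluorescence (ex 320, em 430) was read at 0 and 20 min at room temperature. Delta was normalized to 5.8 microM ADEP and DMSO/no-enzyme controls.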
# Active calls of the source: *; ? = inconclusive; · = not tested or not shown; [ ] = dose if it differs, or a comment.
SMILES,gsp ag,D2 potentiator,Sfp inh,Menin MLL FP FL,gsp antagonist,TRPV1 PAM,ClpP mod
O=C(COC(=O)c1cn(-c2ccccc2)nc1-c1ccccc1)c1cccc([N+](=O)[O-])c1,5%,3,-4%,4.4,11%,-12,0.9%
O=C(COC(=O)c1ccc2c(c1)OCO2)Nc1ccccc1,6%[15.4 µM],-5,20%,-1.2,4%,-5,·
Cc1ccc(NC(=S)N(CCCN2CCC(C)CC2)Cc2ccco2)cc1C,-3%[15.4 µM],-15,23%,-0.7,1%,3,-2.3%
Cc1cccc(C(=O)NC(C)C2CC3CCC2C3)c1 (stereo not given),5%[15.4 µM],-14,·,·,0%,·,·
O=C1N(c2ccccc2C(F)(F)F)O[C@]1(c1ccccc1)C1CCCCC1,-38%[inhibitor],-5,·,·,-9%,-2,-4.8%
C=CCn1c(C(C)NC(=O)CCC)nc2ccccc21 (stereo not given),8%,-4,3%,2.8,0%,2,-1.1%
COc1cccc(CN(c2ccc3c(c2)CCC3)S(=O)(=O)c2ccc(-n3cnnn3)c(OC)c2)c1,10%[15.4 µM],-3,-3%,-3.7,?,-9,1.0%
CCN(CC(=O)Nc1c(F)cccc1F)C(=O)c1ccc(C(F)(F)F)cc1,-1%,-6,16%,-2.4,7%,-20,-0.2%
O=C(CNC(=S)NC(=O)c1cccc([N+](=O)[O-])c1)c1ccccc1,-7%[15.4 µM],-8,7%,-0.4,0%,2,·
Cc1cc(NC(=O)C(C)SCC(=O)N(C)Cc2c(F)cccc2Cl)no1 (stereo not given),6%,-9,·,·,-3%,·,·
Nc1nc(-c2ccccc2)cc(N2CCCCC2)n1,-39%[inhibitor],-20,-10%,3.4,-18%,14,-6.8%
O=C(Nc1ccc(C2=NCCN2)cc1)c1ccc(C(=O)Nc2ccc(C3=NCCN3)cc2)c([N+](=O)[O-])c1,3%,-3,-20%,?,5%,-10,·
Cc1ccc(C(=O)c2cccc(N)c2)cc1C,14%,-5,12%,-1.2,20%,8,0.0%
Cc1ccc(-n2c3c(cc(C(=O)O)c2=O)C(=O)CC(C)(C)C3)cc1,3%,-3,13%,4.4,-24%,0,-3.7%
CCCn1c(SCC(=O)NC2CCCCC2)nnc1C1CC1,-6%[15.4 µM],-20,6%,·,4%,-2,-3.6%
CC(C)(C)c1ccc(C(=O)N2CCC(C(=O)NCC3CCCO3)CC2)cc1 (stereo not given),15%,9,14%,0.1,9%,-3,0.4%
O=C(COC(=O)c1cc([N+](=O)[O-])ccc1N1CCOCC1)NC1CCS(=O)(=O)C1 (stereo not given),-5%,16,·,·,17%,-1,0.5%
O=C(CSc1ccc(-c2ccncc2)nn1)N1CCCCC1,-6%[15.4 µM],-3,11%,1.9,-8%,-10,·
CCSc1nc(O)c(C2OC(=O)c3c2ccc(OC)c3OC)c(=O)n1-c1ccccc1 (stereo not given),-4%,-11,22%,2.1,4%,?,0.8%
CC1Oc2ccccc2C=C1/C=N/NC(=O)c1ccccc1O (stereo not given),0%[15.4 µM],-12,-4%,1.0,-10%,10,-0.3%
O=C(CO/N=C/c1ccc(Cl)cc1Cl)NNC(=O)c1cccc(Cl)c1,4%[15.4 µM],-2,7%,-2.2,3%,-15,·
CCOc1ccccc1/C=N/n1c(COc2ccccc2)n[nH]c1=S,?,-11,35µM*,-1.6,?,?,5.0%
O=C(CSc1nc2ccccc2c(=O)n1CCCO)NCc1ccccc1,-4%,-9,3%,6.4,-5%,13,-1.5%
Fc1ccccc1N1CCN(Cc2cc(-c3ccccc3)on2)CC1,?,-35,3%,-3.0,-9%,-18,-3.7%
CCOC(=O)C1=C(O)CSC1=Nc1cccc2ccccc12,3%,-1,-3%,0.3,-5%,-14,-3.3%

# Filtered by structure, the compounds so far with a CF3 group
SMILES,gsp ag,D2 potentiator,Sfp inh,Menin MLL FP FL,gsp antagonist,TRPV1 PAM,ClpP mod
O=C1N(c2ccccc2C(F)(F)F)O[C@]1(c1ccccc1)C1CCCCC1,-38%[inhibitor],-5,·,·,-9%,-2,-4.8%
CCN(CC(=O)Nc1c(F)cccc1F)C(=O)c1ccc(C(F)(F)F)cc1,-1%,-6,16%,-2.4,7%,-20,-0.2%

# (cont.)
SMILES,gsp ag,D2 potentiator,Sfp inh,Menin MLL FP FL,gsp antagonist,TRPV1 PAM,ClpP mod
c1ccc(-c2nc(NCC3CCCO3)c3oc4ccccc4c3n2)cc1 (stereo not given),2%,-16,-24%,2.0,-18%,-15,-8.8%
CC(=O)Nc1ccc(/C=C/c2ccc3cccc([N+](=O)[O-])c3n2)cc1,-15%,-6,-4%,1.5,-17%,-3,1.5%
Cc1ccc(S(=O)(=O)Nc2ccc(NC(=O)c3ccc(F)cc3)cc2)cc1,-3%,-11,11%,5.8,?,18,-2.5%
Cc1ccc(Nc2nc3ccccc3c(=O)[nH]2)cc1C,?,-8,2%,-4.1,0%,2,·
CCc1ccc(-c2cc(C)no2)cc1S(=O)(=O)N1CCN(c2ccc(OC)cc2)CC1,?,-3,4%,·,-24%,4,-1.9%
CC(C)Cn1c2c(c(O)c(C(=O)Nn3c(Cc4ccccc4)nc4ccccc4c3=O)c1=O)CCCC2,-3%,-11,5%,5.6,-4%,6,?
COc1cccc(NC(=O)CCNC(=O)c2ccccc2Cl)c1,2%[15.4 µM],2,8%,-1.0,15%,-4,·
CC(C)C(=O)N1CCC2(CC1)Oc1ccc(F)cc1C(=O)C21CC(c2ccc(Cl)cc2)=NO1 (stereo not given),·,-11,-11%,1.5,-16%,-27,-2.9%
CCOc1ccc(C2C(C(=O)c3ccco3)=C(O)C(=O)N2Cc2cccnc2)cc1OC (stereo not given),21%,?,-17%,-3.6,3%,9,-1.7%
Cc1cccc(CSc2[nH]c(=O)ncc2C)c1,-17%,-11,8%,-0.8,-3%,-1,-3.2%
C=CCNC(=O)COC(=O)c1ccc(Cl)c(S(=O)(=O)N(Cc2ccccc2)c2ccccc2)c1,?,0,4%,-1.9,?,9,-0.3%
COC(=O)c1ccc(NC(=O)Nc2ccc([N+](=O)[O-])cc2)cc1,-52%,28,2%,1.1,?,-7,4.1%
O=C(CN1CCN(C(=O)c2c(F)cccc2F)CC1)Nc1ccccc1C(F)(F)F,-22%,-3,1%,1.7,-9%,-18,-0.9%
O=C(O)c1ccc(N2CCN(C(c3ccccc3)c3ccccc3)CC2)c([N+](=O)[O-])c1,3%[15.4 µM],-6,5%,-1.9,-28%,-1,-1.8%
COC(=O)c1nnn(-c2nonc2N)c1CN1CCCC1,-43%[inhibitor],-13,2%,-1.9,3%,-52,-1.0%
CC(C)(C)C(=O)NCCc1nc2ccccc2n1CC(=O)c1ccc(Cl)cc1,-29%,-4,-5%,12,-8%,15,-13%
CCN(CC)S(=O)(=O)c1ccc(O)c(C(=O)OCC(=O)N2c3ccccc3CC2C)c1 (stereo not given),-28%[15.4 µM],3,7%,0.8,-31%,-8,·
Cc1ccccc1C1NC(=O)c2ccccc2O1 (stereo not given),-8%,-16,22%,-4.0,-3%,10,4.5%
COc1ccc2c3c([nH]c2c1)[C@H]1C[C@H]2[C@H](C[C@@H](O)[C@H](OC)[C@H]2C(=O)O)CN1CC3,·,-5,·,·,-6%,-1,?
CCC(C)(C)NC(=O)C(c1ccc(F)cc1)N(Cc1cccs1)C(=O)c1cnccn1 (stereo not given),13%[15.4 µM],1,4%,-0.7,·,4,·
Cn1cnnc1Sc1ccc(C(=O)NCCC23CC4CC(CC(C4)C2)C3)cc1[N+](=O)[O-],-44%[inhibitor],10,5%,4.4,-15%,-15,-4.4%
CC1(C)Cc2ccccc2C2CC(O)C(=O)N21 (stereo not given),-16%,6,?,-0.3,2%,9,-0.2%
CCN(C(=O)CSc1ccc2ccccc2n1)C1CCS(=O)(=O)C1 (stereo not given),-9%[15.4 µM],-6,14%,-4.7,11%,1,·
O=C(O)CCCc1c(-[n+]2ccccc2)[nH]c2ccccc12,?,-4,15%,-2.3,6%,-1,0.0%
O=C(CSc1nncs1)NC(=O)NCc1ccccc1,-57%[inhibitor],-4,6%,-2.4,8%,30,-0.8%
CCC1CCCCN1Cc1ccc(OC)c(OC)c1 (stereo not given),?,-11,10%,2.4,-3%,5,-0.2%
CCOc1ccc(S(=O)(=O)NCCC(=O)NCc2ccncc2)cc1,?,-7,·,·,15%,4,-0.2%

# Record cards, from the list above. Screens in order: gsp ag | D2 potentiator | Sfp inh | Menin MLL FP FL | gsp antagonist | TRPV1 PAM | ClpP mod
# Shown for `Cc1ccc(Nc2nc3ccccc3c(=O)[nH]2)cc1C` → ? | -8 | 2% | -4.1 | 0% | 2 | ·
# Shown for `CC(C)(C)C(=O)NCCc1nc2ccccc2n1CC(=O)c1ccc(Cl)cc1` → -29% | -4 | -5% | 12 | -8% | 15 | -13%
# Shown for `CC(C)C(=O)N1CCC2(CC1)Oc1ccc(F)cc1C(=O)C21CC(c2ccc(Cl)cc2)=NO1` (stereo not given) → · | -11 | -11% | 1.5 | -16% | -27 | -2.9%
# Shown for `CCN(C(=O)CSc1ccc2ccccc2n1)C1CCS(=O)(=O)C1` (stereo not given) → -9%[15.4 µM] | -6 | 14% | -4.7 | 11% | 1 | ·
# Shown for `CCC(C)(C)NC(=O)C(c1ccc(F)cc1)N(Cc1cccs1)C(=O)c1cnccn1` (stereo not given) → 13%[15.4 µM] | 1 | 4% | -0.7 | · | 4 | ·
